# HSD17B inh: qHTS Assay for Inhibitors of HSD17B4, hydroxysteroid (17-beta) dehydrogenase 4 | 7.6% of 75,000 active | Potency, µM (titrated, usually from 57.1 µM), for inactives: top-dose activity change, negative = inhibition, most hits filed as inhibitors | 3-hydroxyacyl-CoA dehydrogenase type-2 (Homo sapiens), Q99714 | recombinant HSD17B10, NADH fluorescence kinetic; many of its hits are not listed in these tables; active means well fitted inhibition curve with a large enough effect; inconclusive means small, poorly fitted or top-dose-only effect; inactive means no such curve, though single readings can be large or run the other way;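 further: the protocol describes HADH2 (HSD17B10) and not the HSD17B4 of the title; nearly all actives have a fitted effect of over 70% in size; most hits overshoot -100% by far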
#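 His-tagged E. coli-expressed HADH2 at 20 nM in 100 mM Tris-HCl pH 9.0 with 0.01 % Tween-20, preincubated 15 min with compound at room temperature. Reaction with 1 mM NAD+ and 90 uM beta-hydroxybutyryl coenzyme A; NADH fluorescence (360/450 nm) read kinetically over 4 min, last minus first point.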
# Active calls of the source: *; ? = inconclusive; [ ] = dose if it differs, or a comment. On the % scale 0 is the no-effect control and ±100 the full control effect; potency means the concentration at half of the fitted maximal effect.
# Start of the data: the first 7 compounds, to show the layout:
mol,HSD17B inh
CC(NC(=O)c1ccco1)C(=O)OCc1cccc(Cl)c1 (stereo unspecified),-5.8%
NCCSc1nc(-c2ccccc2)c(-c2ccccc2)o1,1µM*
CNC(=O)c1cc(S(=O)(=O)N(C)C)ccc1Cl,-0.1%
CC(C)CCOc1cccc(OCC(=O)N(C)C2CCS(=O)(=O)C2)c1 (stereo unspecified),-2.8%
O=C(O)C1CCCCC1C(=O)NCCc1c[nH]c2ccccc12 (stereo unspecified),5.0%
C=CC1=C[C@@H](O)C2OC2C12OCCCO2 (stereo partly specified),2.7%[11.4 µM]
O=c1cc(-c2ccccc2)nc2nc(CCc3ccccc3)[nH]n12,0.3%

# The list itself, repeating the preview:
mol,HSD17B inh
CC(NC(=O)c1ccco1)C(=O)OCc1cccc(Cl)c1 (stereo unspecified),-5.8%
NCCSc1nc(-c2ccccc2)c(-c2ccccc2)o1,1µM*
CNC(=O)c1cc(S(=O)(=O)N(C)C)ccc1Cl,-0.1%
CC(C)CCOc1cccc(OCC(=O)N(C)C2CCS(=O)(=O)C2)c1 (stereo unspecified),-2.8%
O=C(O)C1CCCCC1C(=O)NCCc1c[nH]c2ccccc12 (stereo unspecified),5.0%
C=CC1=C[C@@H](O)C2OC2C12OCCCO2 (stereo partly specified),2.7%[11.4 µM]
O=c1cc(-c2ccccc2)nc2nc(CCc3ccccc3)[nH]n12,0.3%
NCC(=O)[C@@H](O)[C@H](O)[C@H](O)CO,0.4%[11.4 µM]
CCN(CCNS(=O)(=O)c1ccc2c(c1)oc(=O)n2C)c1ccccc1,2.5%
COC(=O)[C@@]1(Cc2ccccc2)[C@H]2c3cc(C(=O)N(C)C)n(Cc4cc(F)c(F)c(F)c4)c3C[C@H]2CN1C(=O)c1ccccc1,6.8%
COn1c(SCC(=O)N(C)C)nc2ccccc2c1=O,4.3%
CC(=O)c1ccc(N2CCN(C(=O)C3(S(=O)(=O)c4ccc(Cl)cc4)CC3)CC2)cc1,-18.6%
O=C1NCC(COCc2ccccc2)O1 (stereo unspecified),-0.4%
COCCn1c(C)cc(C(=O)CSc2n[nH]c(N)n2)c1C,-2.6%
CN(C)CCN(Cc1ccccc1)S(=O)(=O)c1cccc2cccnc12,10.1%
N#Cc1ccc(CN2CCCC3(CCN(C(=O)c4cc(C(F)(F)F)cc(C(F)(F)F)c4)CC3)C2)cc1,3.8%
CCn1nnnc1SCC(=O)c1cc(OC)ccc1OC,-1.6%
COc1cccc(Cn2c(=O)c(C)nc3cnc(N4CCNCC4)nc32)c1,-22.1%
CC(C)NC(=O)C1CCN(C(=O)c2cc3sccc3n2Cc2ccc(F)cc2)CC1,-9.4%
CC(C)[C@@H](OCc1ccccc1)[C@H](C)/C=N\O[C@@H](C)c1cn([C@@H]2COC[C@@H]2O)nn1,-2.5%[11.4 µM]
Cc1ccc(S(=O)(=O)Nc2ccc3c(c2)ncn3C(C)(C)C)cc1,6.8%
CO[C@@H]1COC(=O)C/C=C\[C@H](C)[C@H](OC)COC(=O)[C@H](C)NC(=O)C/C=C\[C@H]1C,2.5%[11.4 µM]
CCOC(=O)c1ccc(NC(=O)C2CC2)cc1,6.7%
Cc1csc2nc(CNC(=O)c3cccc(C(F)(F)F)c3)cn12,2.4%
c1cn(CCCNc2ncnc3sc4c(c23)CCC4)cn1,-0.1%
CCN(c1ccccc1)c1cc(C)nc2ncnn12,-2.3%
CCC(=O)N(Cc1cc2cc(OC)ccc2[nH]c1=O)c1ccccc1C,25.1µM*
C=C(C)Cc1c(C)nc(-c2ccccc2)[nH]c1=O,5.5%
COc1ccc(C(=O)OCCNC(=O)c2c(Cl)nc3ccccn23)cc1,3.1%
COc1ccc(Cc2nnc(SCC(=O)c3ccccc3)o2)cc1,-5.9%
O=C(c1ccc(S(=O)(=O)N2CCCCCC2)cc1)N1CCN(c2ccccn2)CC1,2.8%
COCCN1Cc2cccc(C(=O)Nc3cccc(C)c3C)c2C1=O,2.6%
COc1ccc(S(=O)(=O)N(C)CC(=O)NC2CCCCC2)cc1OC,-1.2%
CCCCN1CC(C(=O)NC2CCCCC2)CC1=O (stereo unspecified),-0.3%
O=C(c1ccco1)N1CCC2(CC1)CN(c1cccc(-c3ccccc3)c1)C2,31.6µM*
COc1ccc(-c2cc(C(F)(F)F)nc(SCCC(=O)NCc3ccco3)n2)cc1,?
COc1ccc(-c2nc(-c3ccccc3)no2)c(OC)c1,?
COc1ccc(OC)c2[nH]c(=O)c(CCNC(=O)COc3ccccc3)cc12,?
O=C(O)c1ccc(Cl)cc1NC(=O)C1CCCO1 (stereo unspecified),-15.9%
O=C(O)C1C2C=CC3(CN(Cc4ccncc4)C(=O)C13)O2 (stereo unspecified),6.1%
CCn1c(=O)[nH]c2ccccc21,13.8%
Cc1cc(C)n(-c2nc(NC(C)(C)C)nc(NC(C)(C)C)n2)n1,3.4%
Cn1cccc1P(=O)(c1cccn1C)c1cccn1C,2.8%
COc1ccc(S(=O)(=O)N2CCN(S(=O)(=O)c3ccc4c(c3)OCCO4)CC2)cc1,6.7%
[O-]/[N+](=C\c1ccncc1)c1ccccc1,-3.1%
COc1ccccc1-c1cc(C(F)(F)F)nc(S(=O)(=O)CCCC(=O)Nc2cc(C)on2)n1,31.6µM*
COc1ccccc1N1CCN(C(=O)c2ccc(S(=O)(=O)N3CCCC3)cc2)CC1,-8.9%
Cn1c(=O)c2c(nc(N3CCCCCC3)n2Cc2cccc3ccccc23)n(C)c1=O,1.2%
CCn1nnnc1SCC(=O)Nc1cccc(C)n1,-1.8%
COc1ccccc1NC(=O)c1cc(Cl)ccc1NC(=O)c1ccco1,29.9%
O=C(O)c1ccccc1NC(=O)C1CCCO1 (stereo unspecified),-4.3%
O=c1oc2ccccc2cc1-c1nnc(-c2cccc(Br)c2)o1,3.98µM*
Cn1c(=O)c2c(nc(N3CCOCC3)n2CC(=O)c2ccccc2)n(C)c1=O,6.2%
CCOC(=O)CNC(=O)C(NC(=O)C1CCC(C)CC1)C(C)CC (stereo unspecified),10.0%
COC(=O)c1ccc(CS(=O)(=O)c2ccccc2C)o1,1.2%
Cc1ccc(-c2csc(N3CCC(C(N)=O)(N4CCCCC4)CC3)n2)cc1,-4.0%
CCOC(=O)c1c(NC(=O)CSc2nnc(CNC(=O)c3ccco3)n2C)sc2c1CCC2,0.3%
CCn1cc(C(=O)N2CCN(C3CCCCC3)CC2)c2cc(OC)c(OC)cc2c1=O,-13.6%
CCn1c(COc2ccccc2)nnc1SCC(=O)CC(=O)Nc1ccccc1OC,-18.9%
CCCCCCN(C(=O)CCCCCN1C(=O)NC(c2ccc(-c3ccccc3)cc2)C(C(=O)OCc2ccccc2)=C1C)C(C(=O)NCCCC)c1ccc(OCC(=O)O)c(C(=O)O)c1 (stereo unspecified),?

# Further results follow.
mol,HSD17B inh
COc1cccc(-c2cc(C(=O)N3CCCc4ccccc43)no2)c1,-5.2%
NC(=O)C[C@H](N)C(N)=O,8.1%[11.4 µM]
Cn1cnnc1SCC(=O)c1ccc2c(c1)CCCC2,7.1%
c1ccc(CNc2ncnc3nc[nH]c23)cc1,4.7%[25.6 µM]
CN(Cc1cccs1)C(=O)COc1ccc(-c2nnco2)cc1,-4.2%
Cc1c2c(nc3ccccc13)OCC2,-1.4%
O=C(O)CCc1ccc(-c2cccs2)n1NC(=O)c1ccc(O)cc1,-5.2%
CC(C)=CCl,5.7%
CN1CCN(CC(=O)Nc2ccc(Oc3ccccc3)cc2)CC1,-3.7%
COC(=O)Cc1c(C)nc2nc(NCc3ccc(Cl)cc3)[nH]n2c1=O,3.2%
COc1ccc(CCn2nnnc2C(CC(C)C)N2CCC(C(N)=O)CC2)cc1OC (stereo unspecified),1.0%
CC(=O)O[C@H]1C(=O)[C@@]2(C)[C@H]([C@H](OC(=O)c3ccccc3)[C@]3(O)C[C@H](OC(=O)[C@H](O)[C@@H](NC(=O)c4ccccc4)c4ccccc4)C(C)=C1C3(C)C)[C@]1(OC(C)=O)CO[C@@H]1C[C@@H]2O,-5.8%
C=CCn1c(=O)c(C(=O)Nc2nnc(C)s2)c(O)c2ccccc21,4.9%
O=C(CC1C(=O)OCN1C(=O)OCc1ccccc1)OCC(=O)c1ccccc1 (stereo unspecified),2.0%
CCCCNC(=O)Nc1ccc(Br)cn1,0.6%
CCC(=O)N1CC23C=CC(CC2CC12CCCCC2)O3 (stereo unspecified),5.7%
CC1(C(=O)NCCCNc2ncc(C(F)(F)F)cc2Cl)C=CC2(CCCCC2)N1C(=O)c1ccccc1 (stereo unspecified),-10.6%
Cn1c(SCc2nnc(-c3ccccc3Br)o2)nc2sc3c(c2c1=O)CCC3,0.2%
CC(=O)Nc1cccc(OC(=O)N2CCOCC2)c1,0.1%
c1ccc(CSCc2ccccc2)cc1,0.8%
COc1ccccc1/C=N/n1cnnc1,?
CC1=C(C(=O)OCc2ccccc2)C(C2CCCCC2)NC(=O)N1CCCCCC(=O)O (stereo unspecified),-2.1%
O=S(=O)(c1ccccc1)N(Cc1nc(-c2ccccc2)no1)C1CCCCC1,3.7%
Cc1ccc(Cn2nnc3c(=O)[nH]c(C(=O)NCc4ccco4)nc32)cc1,3.7%
COC(=O)CN1C(=O)CSc2ncccc21,2.7%
COc1ccccc1-c1cc(N)n(S(=O)(=O)c2ccc(F)c(C)c2)n1,-17.3%
CCOC(=O)N1CCN(S(=O)(=O)c2ccc(OCC)c(C)c2)CC1,-1.9%
Clc1ccc(-c2nn3c(-c4ccncc4)nnc3s2)c(Cl)c1,5.7%
Cn1c(=O)cc(OCCCC(=O)N2CCN(Cc3ccc4c(c3)OCO4)CC2)c2ccccc21,-6.4%
Cc1ccc(-n2nnnc2SCC(=O)c2cc(C)n(-c3cc(C)on3)c2C)cc1,0.5%
CC(C)CNc1nc(Oc2ccc(=O)n(C)n2)nc(N2CCOCC2)n1,6.4%
O=C(C1COc2ccccc2O1)N1CCN(c2ccccc2F)CC1 (stereo unspecified),-1.2%
Nc1ccc(S(=O)(=O)c2cccc(N)c2)cc1,-1.3%
COCCNCC(=O)C12CC3CC(CC(C3)C1)C2,0.9%
Cc1c(Br)c(=O)[nH]c(=O)n1COCc1ccccc1,-1.8%
COC(=O)c1[nH]c2cccc(C)c2c1NC(=O)CN1CCCc2ccccc21,-7.0%
COc1cccc(Cn2c(=O)c(-c3cccc(C#N)c3)nc3cnc(OC)nc32)c1,?
Nc1ccc(C(=O)OCc2nc3ccccc3[nH]2)cc1,-7.8%
CCOc1ccc(NC(=O)CN2C(=O)COc3ccc(Cl)cc32)cc1,-5.6%
COc1ccc2nc3oc(C(=O)N4CCC(C(N)=O)CC4)cc3cc2c1,31.6µM*
CCn1c(Cc2ccccc2)nnc1SCC(=O)Nc1ccc2c(c1)OCCO2,-5.0%
CCCOC(=O)Cc1n[nH]c(=O)[nH]c1=O,8.0%
CCOC(=O)c1cccc(NC(=O)CSc2nnc(-c3cccnc3)n2CC)c1,8.6%
COc1ccc(-c2cc(C(=O)N3CC4(C)CC3CC(C)(C)C4)no2)cc1 (stereo unspecified),-3.0%
O=C1c2ccccc2S(=O)(=O)N1CCCCN1CCN(c2ncccn2)CC1,1.1%
CCOC(=O)N1CCN(c2nc(=S)n(-c3ccccc3)c(C)c2C(C)=O)CC1,-4.3%
NC(=O)COc1ccc(C2c3c(oc4ccccc4c3=O)C(=O)N2CC2CCCO2)cc1 (stereo unspecified),6.3%
COc1ccccc1N1CCN(C(=O)Cn2nnc(-c3ccncc3)n2)CC1,4.5%
CCOC(=O)NC(NC(=O)OCC)C(=O)c1ccccc1,7.6%
CN(C)c1ccc(C2N(c3cccc(Cl)c3)C(=O)C3CCCN32)cc1 (stereo unspecified),5.5%
CCS(=O)(=O)N1CCCC(C(=O)NCc2ccccc2Cl)C1 (stereo unspecified),0.4%
Cc1noc(C)c1-c1nccc(Nc2ccc(F)cc2)n1,-10.5%
Cc1c(NS(=O)(=O)c2ccc3c(c2)n(C)c(=O)n3C)c(=O)n(-c2ccccc2)n1C,10.1%
CN(C)S(=O)(=O)c1ccc(-c2ccccc2)cc1,-0.7%
CCCC(N)CCCCCC(=O)O (stereo unspecified),-1.8%
O=S(=O)(NCc1ccccc1)c1cccc2nonc12,-1.1%
COc1cc(OC)cc(C(=O)NCc2n[nH]c(=S)n2-c2ccccc2OC)c1,7.7%
CC1(C)Oc2ccc3ccc(=O)oc3c2-c2cn[nH]c21,5.6%
CCOC(=O)c1oc2ccccc2c1CSc1nnnn1-c1ccc(OC)cc1,7.1%
Cc1sc2nc(SCc3nc4ccccc4[nH]3)n(Cc3ccco3)c(=O)c2c1C,0.6%

# (list continues)
mol,HSD17B inh
CC(C)(C)c1ccc(C(=O)NCc2cccnc2)cc1,5.8%
COc1ccc(NS(=O)(=O)c2coc(C(N)=O)c2)cc1Cl,7.3%
COCCOC(=O)C1=C(C)NC(=O)NC1c1ccc(OC(=O)c2ccco2)c(OC)c1 (stereo unspecified),-6.8%
CCCCN1C(=O)C(NC(C)=O)c2cc(Br)ccc21 (stereo unspecified),-3.7%

# These rows are one share of the data; count on the stated rates, not on these rows.
